# Mtb H37Rv – Mycobacterium tuberculosis H37Rv growth inhibition, cell based, confirmatory dose response (AID 1949). M. tuberculosis H37Rv growth inhibition. most inactive calls were filed without a number and no value below 0 was filed. inhibition, % at 10 µg/mL, or IC50 in µg/mL where a hit was titrated. actives 1.6% (n = 100,000);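 active = confirmed in a dose series; inconclusive = about 50% or more but not retested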;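 also: bacteria grown 7 days with compound before Alamar blue readout; 0% = untreated bacteria and 100% = reference antibiotic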
# Active calls of the source: *; i = inactive; ? = inconclusive. The list is partial, so the mix of outcomes need not match the whole.
SMILES | Mtb H37Rv
CCc1ccc(C(=O)N2CCN(c3ccc([N+](=O)[O-])c(N4CCOCC4)c3)CC2)cc1 | i
O=c1cc(-c2ccccc2)nc(SCc2ccccc2F)[nH]1 | i
COc1cc(NC(=S)NC(=O)CC23CC4CC(CC(C4)C2)C3)ccc1NC(=O)c1cccs1 | 5.0%
CCOC(=O)CN1C(=O)c2ccccc2C1=O | i
N#Cc1cc(Oc2ccccc2)c(Oc2ccccc2)cc1C#N | i
CC(=O)Nc1ccc(S(=O)(=O)NCc2ccccc2)cc1 | i
O=C(CSc1ccc(Cl)cc1)c1ccc2c(c1)OCCO2 | 5.6%
COc1ccccc1-n1c(N)cc(=O)nc1SCC(=O)Nc1ccc(Br)cc1 | i
COc1ccc(NC(=O)N2CCCCC2)cc1 | 11.4%
Cc1cccc(CSc2nc(N)cc(N)n2)c1 | i
Cc1cc(C)c(S(=O)(=O)NCCCn2ccnc2)c(C)c1 | i
CCCCC(=O)Nc1ccccc1C#N | 7.3%
CCOC(=O)c1ccc(NC(=O)COc2ccc(C3NC(=S)NC(C)=C3C(C)=O)cc2OC)cc1 (stereo not drawn) | i
Cc1ccc2[nH]c(O)c(N=NC(=O)COc3ccccc3C)c2c1 | i
C=CCSc1nc2sc3c(c2c(=O)n1-c1ccccc1)CCCCC3 | 30.8%
COc1ccc(N2CC34C=CC(O3)C(C(=O)O)C4C2=O)cc1 (stereo not drawn) | i
c1ccc(COc2ccc(OCCN3CCCC3)cc2)cc1 | i
CCN(CC)C(=O)CN(c1cccc(C)c1C)S(=O)(=O)c1ccc(C)cc1 | i
O=C(CNC(=O)c1cc2c(n(-c3ccccc3)c1=O)CCCC2=O)c1ccccc1 | i
Cc1c(NC(=O)c2ccc(Cl)c(S(=O)(=O)N3CCOCC3)c2)c(=O)n(-c2ccccc2)n1C | i
CCOC(=O)c1c(NC(=S)N2CCN(C(=O)c3ccco3)CC2)sc(C)c1-c1ccccc1 | i
CC(C)(C)NC(=O)COc1ccc(CNc2ncn[nH]2)cc1 | i
O=S(=O)(Nc1ccc(F)c(F)c1)c1ccc(Cl)s1 | i
O=C(Nc1ccccc1Cl)c1cccc(Br)c1 | 0.3%
Cc1ccc(C(=O)NCC2CCCO2)c(F)c1F (stereo not drawn) | i
CCOc1ccc(C(=O)NC(=S)Nc2nc(-c3ccc(OC)cc3)cs2)cc1[N+](=O)[O-] | 2.2%
CCSc1ncc(-c2ccc([N+](=O)[O-])cc2)[nH]1 | 0.1%
O=C(OCc1c(F)cccc1Cl)c1ccccc1C(=O)c1ccccc1 | i
CCN(CC)CCC(=O)c1ccc(C(C)C)cc1 | 47.6µg/mL*
CCCC(=O)Nc1ccccc1NC(=O)c1cccc(Cl)c1 | i
C=CCNC(=O)COc1ccc(S(=O)(=O)NC2CCCCC2)cc1 | i
Cc1ccc(-c2cc(C(=O)N3CCN(c4ccccn4)CC3)c3cc(Br)ccc3n2)cc1 | i
O=C(Nc1ccccc1Oc1ccccc1)c1cccc(F)c1 | i
O=C(Nc1ccc(OCc2ccccc2)cc1)C1CCN(C(=O)c2ccccc2Cl)CC1 | 47.6%
COc1ccc(NC(=O)C(=O)NCCN2CCN(C(=O)c3ccccc3OC)CC2)cc1 | i
Cc1ccc(NC(=O)CN(Cc2ccccc2Cl)S(=O)(=O)c2ccc(Cl)cc2)c(C)c1 | i
O=C(CSc1ccc(Cl)cc1)NCCSCc1ccco1 | 24.6%
CSc1ccccc1C(=O)Nc1ccc(I)cc1 | i
COC(=O)C(O)(c1ccc(NC(=O)c2c(F)c(F)c(F)c(F)c2F)c(C)c1)C(F)(F)F (stereo not drawn) | 48.6%
CCCCCOc1ccc(/C=C/C(=O)Nc2ccc(-c3nc4ccc(C)cc4s3)cc2)cc1OC | i
O=C(Nc1cccc([N+](=O)[O-])c1)c1sc2cc(Cl)ccc2c1Cl | i
CCOc1ccccc1N(CC(=O)NC1CC2CCC1C2)S(=O)(=O)c1ccc(Cl)cc1 (stereo not drawn) | i
Cc1ccc(S(=O)(=O)N(c2ccccc2F)C(F)F)cc1 | i
S=c1nc(-c2ccccc2OCc2ccccc2)[nH][nH]1 | i
O=C(Nc1ccccc1C(F)(F)F)c1cccc(C(=O)Nc2ccccc2C(F)(F)F)n1 | 6.9%
CCOC(=O)CSc1nc(C)c2cc(OC)ccc2n1 | 10.6%
O=S1(=O)CC2C(C1)N(c1cccc(C(F)(F)F)c1)C(=S)N2c1ccccc1 (stereo not drawn) | i
CN(C)c1ccc(NC(=O)c2ccccc2-c2ccccc2)cc1 | 0.6%
CCCC(=O)c1ccc(N2CCN(C(=O)c3ccc(F)cc3F)CC2)c(F)c1 | 2.1%
Cc1ccccc1C(=O)N1CCN(c2ccc(NC(=O)c3cccc(OC(C)C)c3)cc2)CC1 | i
O=C(NCCOc1cccc(Cl)c1Cl)c1cncc(Br)c1 | 0.3%
COc1ccc(S(=O)(=O)Nc2ccccc2C(=O)NCc2ccccc2)cc1C | i
CC(C)Oc1ccccc1OCCn1cnc2ccccc2c1=O | 2.6%
CCn1c(SCC(=O)NC2CCCCC2)nnc1C(C)NC(=O)c1ccc(C)cc1 (stereo not drawn) | i
CCOC(=O)c1c(-c2cccc([N+](=O)[O-])c2)csc1NC(=O)c1cccs1 | i
O=C(CSc1nnc2scc(-c3ccccc3)n12)NCc1ccc2c(c1)OCO2 | 3.3%
COC(=O)c1ccccc1NC(=O)c1cc(-c2ccc3c(c2)OCO3)nc2ccccc12 | i
Cc1cc(=O)oc2cc(OCc3c(F)cccc3F)c(Cl)cc12 | i
Cc1cc(SCC(=O)c2cccs2)nc2ccccc12 | i
N#C/C(=C/c1ccccc1[N+](=O)[O-])c1nc2c(s1)CCCC2 | i

# Next section:
SMILES | Mtb H37Rv
Cc1cccc(OC(=O)CN2C(=O)C3C4CCC(C4)C3C2=O)c1C (stereo not drawn) | i
CCOc1cc(C(=O)Nc2cccc(CC)c2)cc(OCC)c1OCC | i
Cc1ccc(OCCOCCN(C)C)c(Cl)c1 | i
COc1ccc(Nc2nnc(C)c3ccccc23)cc1C(=O)N1CCCCC1 | i
CC(=O)Nc1ccc(OCC(=O)Nc2cccc(C)c2C)cc1 | i
COc1ccc(C)cc1S(=O)(=O)Nc1cc(Cl)cc(Cl)c1 | i
CNCC(O)Cn1c2ccccc2c2ccccc21 (stereo not drawn) | 2.6%
O=C(COc1ccc(F)cc1)Nc1cc(C(=O)O)cc(C(=O)O)c1 | i
COc1ccc(NC(=S)NCCc2ccc(Cl)cc2)cc1OC | i
Cc1cc(C(C)(C)C)ccc1OCCNCCO | i
COc1ccc(C(=O)Oc2ccc3c(c2C)CCCC3)cc1OC | 5.0%
Cc1cccc(NC(=S)Nn2cnnc2)c1C | i
O=C(Nc1nc2ccccc2n1CCOc1ccc(Cl)cc1)c1ccco1 | ?
CC(=O)c1cccc(NC(=O)CN(c2ccccc2F)S(C)(=O)=O)c1 | i
CCc1cccc(C)c1NC(=O)CN(Cc1ccccc1)S(=O)(=O)c1ccc(F)cc1 | i
COc1ccc(-c2nc(N3CCCC3)c3ccccc3n2)cc1 | i
Fc1ccccc1COc1ccc(CNc2ccccc2)cc1 | 6.0%
CCN(CC)S(=O)(=O)c1ccc(OC)c(NC(=O)c2cccc(F)c2)c1 | i
CCc1ccccc1NC(=O)COc1ccc(F)cc1 | 7.9%
CCCN(CCC)S(=O)(=O)c1ccc(C(=O)Nc2ccc(S(=O)(=O)Nc3cc(OC)ncn3)cc2)cc1 | i
CC(CNC(=O)c1ccccc1F)CN(C)C (stereo not drawn) | i
COc1ccc(C(C)NC(=O)c2cccnc2)cc1OC (stereo not drawn) | i
CCOC(=O)c1sc(NC(=O)CSc2nc(-c3ccc(OC)cc3OC)cc(C(F)(F)F)c2C#N)c(C#N)c1C | i
O=C(CCSc1ccccc1)Nc1ccc(Oc2ccccc2)cc1 | 2.4%
O=C(Cc1ccc(Cl)cc1)Nc1c(Cl)cccc1Cl | i
COc1ccc(C)cc1NC(=O)C(Sc1ccccc1)c1ccccc1 (stereo not drawn) | i
COc1ccc(CCN2C(=O)C3CC=C(C)CC3C2=O)cc1OC (stereo not drawn) | i
COC(=O)c1ccccc1NS(=O)(=O)c1ccc(OC)c(Cl)c1 | i
Cc1ccc(S(=O)(=O)N(C)CC(=O)N2CC(C)OC(C)C2)cc1 (stereo not drawn) | i
CCOc1cccc(C2C(C(=O)OC)=CN(c3ccc(OC)cc3)C=C2C(=O)OC)c1 | i
CN1CCN(NC(=O)CC(C)(C)C)CC1 | i
O=C1CC(N2CCN(C34CC5CC(CC(C5)C3)C4)CC2)C(=O)N1c1ccc(F)cc1 (stereo not drawn) | 4.8%
O=C(NCc1ccc(Cl)cc1)C1CCCN(S(=O)(=O)c2ccc(Cl)cc2)C1 (stereo not drawn) | i
CCNC(=O)c1cc(Cl)c(OCC)c(OCC)c1 | i
Clc1ccc(Cl)c(OCCCCNCc2ccccc2)c1 | 3.0%
Clc1ccc(CSCc2nc3ccccc3[nH]2)cc1 | 1.5%
CC(=O)NC1(C(F)(F)F)C(=O)N(c2ccc(F)cc2)C(C)=C1C(=O)c1ccccc1 (stereo not drawn) | i
Fc1cccc(NC(=S)Nc2ccc(Br)cc2)c1 | ?
O=C(OCc1ccc(F)cc1Cl)c1ccccn1 | i
Cc1cccc(NC(=O)CSc2nc3ccccc3c(=O)n2C)c1C | i
Cc1ccc(F)cc1NC(=O)c1c(-c2ccccc2)noc1C | i
O=C(NC1CCCCC1)c1ccccc1-c1ccccc1 | 38.0%
N#Cc1ccccc1NC(=O)c1ccc(-c2cccc(C(F)(F)F)c2)o1 | i
CNc1nc(OC)nc(Oc2ccc(C(=O)OC)cc2)n1 | i
COCC(=O)Nc1ccccc1C(=O)NCc1ccccc1 | 2.4%
C=CS(=O)c1sc(Cl)c(N2CCOCC2)c1[N+](=O)[O-] (stereo not drawn) | 5.77µg/mL*
COC(=O)CCS(=O)(=O)c1ccc(-c2ccc(S(=O)(=O)CCC(=O)OC)cc2)cc1 | i
CC(C)c1ccccc1NC(=O)CN(c1ccc2c(c1)OCCO2)S(C)(=O)=O | i
Clc1ccc(SCCOCCNCc2ccccc2)cc1 | i
COc1ccc2c(Cl)c(C(=O)Nc3ccc(S(=O)(=O)N4CCCC4)cc3)sc2c1 | i
CCCS(=O)(=O)N1CCN(S(=O)(=O)c2ccc(F)cc2)CC1 | i
COC(=O)c1cccc(NC(=S)NCc2ccc(Cl)cc2)c1 | 0.0%
CCCOc1ccc(C(=O)NC(=S)Nc2ccccc2C(=O)O)cc1 | i
Cn1nnnc1SCCNCc1ccccc1 | i
O=C(CSc1nnc2scc(-c3ccccc3)n12)N1CCOCC1 | i
CCOC(=O)c1c(NC(=O)c2cccnc2)sc2c1CC(C)(C)OC2 | 6.8%
COc1ccccc1C(=O)Nc1ccc(N2CCOCC2)cc1 | 3.0%
CCc1nc2cc(-c3ccccc3)nn2c2nc(=O)c(C)nn12 | 0.2%
CNc1oc(Cc2ccccc2)nc1S(=O)(=O)c1ccccc1 | 1.0%
S=C(NCc1cccs1)Nc1ccccc1Cl | i

# Of the compounds above, five contain a cyano group:
SMILES | Mtb H37Rv
N#Cc1cc(Oc2ccccc2)c(Oc2ccccc2)cc1C#N | i
CCCCC(=O)Nc1ccccc1C#N | 7.3%
N#C/C(=C/c1ccccc1[N+](=O)[O-])c1nc2c(s1)CCCC2 | i
CCOC(=O)c1sc(NC(=O)CSc2nc(-c3ccc(OC)cc3OC)cc(C(F)(F)F)c2C#N)c(C#N)c1C | i
N#Cc1ccccc1NC(=O)c1ccc(-c2cccc(C(F)(F)F)c2)o1 | i

# (listing goes on)
SMILES | Mtb H37Rv
COc1ccc(S(=O)(=O)N(C)C)cc1 | 7.5%
COCC(=O)Nc1ccccc1C(=O)NC(C)C | i
Cc1oc2c(cc(O)c3ccccc32)c1C(=O)c1ccc(Cl)cc1 | i
Cc1ccc(NC(=O)c2ccncc2)c(NC(=O)c2ccncc2)c1 | i
C=CCN1C(=O)C(Cc2cccc(C)c2)S/C1=N/N=C/c1ccc(OC)c(OC)c1 (stereo not drawn) | i
S=C(Nc1ccc2nccnc2c1)N1CCOCC1 | i
CCOC(=O)CSc1nnc(Cc2ccccc2)n1-c1ccc(OC)cc1 | i
COc1cc(NC(=O)c2ncn[nH]2)c(OC)cc1Cl | 2.9%
Cc1ccc(-n2c(C)c3c(C)nnc(C)c3c2C)cc1C | i
O=C(Nc1ccc(Cl)cc1F)c1cc(Cl)ccc1Cl | i
COc1ccc(CNC(C)c2ccccc2)cc1Br (stereo not drawn) | i
O=C(CSc1nc2ccccc2s1)N1CCCc2ccccc21 | 5.6%
COc1cccc(CC(CC(=O)O)C(=O)O)c1 (stereo not drawn) | i
Nc1nnc(SCC(=O)N2CCCCC2)n1CC(=O)N1CCCCC1 | i
Cn1c(=O)[nH]c2nnc(-c3cccs3)nc2c1=O | 2.7%
COc1ccc(Cl)cc1C(=O)Nc1cccc(F)c1 | i
COc1ccc(-c2cc(-c3ccccc3)c(C#N)c(SCC(=O)O)n2)cc1 | 0.1%
Fc1ccccc1COc1ccc(Br)cc1CNCc1cccnc1 | i
Fc1ccc(CNC(=S)Nc2ccc(Br)cc2)cc1 | 2.5%
CCN(CC)C(=O)CN(c1cc(Cl)ccc1Cl)S(C)(=O)=O | i
O=C(NCc1cccs1)c1ccc2c(c1)OCCO2 | i
COc1ccc(NS(=O)(=O)c2c(C)cc(C)cc2C)cc1Cl | i
Cc1cc(C)nc(NC(=O)c2cccc3ccccc23)c1 | i
CCOc1ccc(N(CC(=O)Nc2cccc(SC)c2)S(=O)(=O)c2ccc(C)cc2)cc1 | 11.6%
Cc1sc2nc(-c3ccccc3)oc(=O)c2c1C | i
O=C(NC1C2CC3CC(C2)CC1C3)c1ccc(-c2ccc(Cl)cc2)o1 (stereo not drawn) | 10.9µg/mL*
